N370S GC – qHTS Assay for Inhibitors and Activators of N370S glucocerebrosidase as a Potential Chaperone Treatment of Gaucher Disease; N370S GC spleen homogenate, 4MU-glucoside fluorescence; Potency, µM (doses to about 59.4 µM), inactives show top-dose activity change, negative = inhibition, most hits filed as inhibitors; 330,000 compounds, 0.092% hits;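 note: 0% = full enzyme activity and -100% = no enzyme basal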
FEN1 inhibitor – qHTS Assay for the Inhibitors of Human Flap endonuclease 1 (FEN1) | P39748 | Recombinant FEN1 flap cleavage, fluorescence, 15 min | Potency, µM (series often up to 114 µM), for the others: at the top dose activity change, negative = inhibition, most hits filed as inhibitors | 390,000 compounds, 0.35% hits | AID 588795, 2011; note: nearly all actives have a fitted effect of over 65% in size
Target sequence (P39748 whole entry, looked up): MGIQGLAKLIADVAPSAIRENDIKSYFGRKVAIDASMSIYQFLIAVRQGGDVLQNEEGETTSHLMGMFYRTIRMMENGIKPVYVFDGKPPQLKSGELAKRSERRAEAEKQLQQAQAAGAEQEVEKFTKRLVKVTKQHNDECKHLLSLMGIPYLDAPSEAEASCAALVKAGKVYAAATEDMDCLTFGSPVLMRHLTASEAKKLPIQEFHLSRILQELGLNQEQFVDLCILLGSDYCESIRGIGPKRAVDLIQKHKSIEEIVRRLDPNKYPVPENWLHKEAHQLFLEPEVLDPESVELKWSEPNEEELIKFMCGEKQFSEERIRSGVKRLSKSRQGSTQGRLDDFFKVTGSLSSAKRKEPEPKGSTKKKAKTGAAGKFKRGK
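In this screen, 50 nM flap DNA substrate was added to 10 nM FEN1 pretreated with compound for 15 min at room temperature; cleavage was followed with reads at 0 and 15 min, and Hill fitting gave concentration–response parameters.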
Starred values were filed as active, the others as inactive; ? = inconclusive; . = no result given; & = joins results of further samples; [ ] = remark or other dose. Calls come from the whole dose curve; as a rule, active = well fitted curve in the direction sought with a large enough effect; inconclusive = small, poorly fitted or top-dose-only effect, or another doubt; inactive = no such curve, though single readings can be large; an effect the other way counts as inactive or inconclusive. Unless noted, % is set by controls: 0 for no effect and ±100 for the full control effect; potency is the fitted concentration of half-maximal effect.

SMILES | N370S GC | FEN1 inhibitor
Cc1ccc(C)c(S(=O)(=O)C(C#N)c2nc3ccccc3nc2N2CC(C)OC(C)C2)c1 (stereo not given) | -2% | 12%
CCOc1ccc(S(=O)(=O)N2CCOCC2)cc1NC(=O)Cc1c(F)cccc1Cl | -4% | 1%
O=C(CCc1nc2ccccc2c(=O)[nH]1)NCCN1C(=O)S/C(=C\c2ccc(Cl)cc2Cl)C1=O | -6% | 10%
COc1ccc(NC(=O)C2CCCC2)cc1 | -15% | -1%
CN(CC(=O)Nc1ccc(Cl)c(C(F)(F)F)c1)C(=O)c1ccc2c(c1)NC(=O)CS2 | . | -3%
O=C(CSC(=S)N1CCOCC1)Nc1nc(=O)c2ccccc2s1 | 8% | .
Cc1ccc(CN2CCN(Cc3cccc(C)n3)CC2CCO)cc1 (stereo not given) | -1% | 3%
O=C(c1ccc(F)c(S(=O)(=O)N2CCOCC2)c1)N1CCN(c2ncccn2)CC1 | . | -5%
COCCN1CC(C(=O)NCc2ncccc2C)CCC1=O (stereo not given) | -1% | -2%
Cc1ccc(CNC(=O)C2CCC(=O)N(CC3CCCCC3)C2)o1 (stereo not given) | 2% | -1%
Cc1ccc(OCc2cc(C(=O)NC3CCOC3)no2)cc1C (stereo not given) | -1% | -12%
COc1ccc(CCNC(=O)c2ccccc2)cc1 | -4% | -3%
CC(C)OC(=O)c1cccc(-c2ccc(C=O)o2)c1 | -4% | -4%
CCC1(C)Cc2ccccc2-c2[nH][nH]c(=O)c21 (stereo not given) | -5% | -1%
CCCc1nnc(-c2ccc(OC)cc2)o1 | 5% | 4%
Cc1ccc(N(C)C(=O)N2CCN(S(=O)(=O)c3c(C)cc(C)cc3C)CC2)cc1 | 0% | 1%
O=C(COc1ccc(-c2nnco2)cc1)N1CCN(S(=O)(=O)c2ccc3ccccc3c2)CC1 | 0% | -11%
Cc1ccc(CNC(=O)CCN2C(=O)COc3ccc(C)cc32)cc1 | . | -2%
N#Cc1c(C(F)(F)F)cc(-c2ccccc2)nc1SCCN1CCOCC1 | -18% | 4%
CCCCN(C(=O)CSCC(=O)Nc1cccc(C)c1)c1c(N)n(CCCC)c(=O)[nH]c1=O | 5% | 4%
Cn1cccc1C(=O)N1CCC2(CC1)CN(c1cccc(-c3ccccc3)c1)C2 | -2% | .
CSc1ncccc1C(=O)OCC(=O)c1cc2ccccc2o1 | 17% | 1%
O=C(NNC(=O)c1cc2cc(Br)ccc2oc1=O)c1ccc(O)cc1 | ? | -8%
CCOC(=O)C1CCCN(C(=O)c2cc3c(C)nc4ccccc4c3o2)C1 (stereo not given) | 2% | 11%
COC(=O)c1c(-c2c(Cl)cccc2Cl)noc1C(=O)NN | 4% | -1%

Next part; the last 2 above are carried over.
SMILES | N370S GC | FEN1 inhibitor
CCOC(=O)C1CCCN(C(=O)c2cc3c(C)nc4ccccc4c3o2)C1 (stereo not given) | 2% | 11%
COC(=O)c1c(-c2c(Cl)cccc2Cl)noc1C(=O)NN | 4% | -1%
CC(C)NC(=S)NC(=O)c1ccc(Cl)cc1Cl | 1% | 0%
Cc1ccc(S/C=C\C(=O)c2ccccc2)cc1 | 14% | -8%
COc1nc(N=C(N)N)nc2ccc(C)cc12 | -2% | .
CCCC(=O)N1CCC(O)(c2cccc(F)c2)CC1 | -4% | -1%
COc1cc(OC)c2c(c1Cl)OC1(C2=O)C(O)=CC(=O)CC1C (stereo not given) | 3% | .
CCCCc1nnc(SCC(=O)NC2CCCCC2)n1C | 0% | 8%
CCCCC(=O)Nc1ccc2c(c1)nc(CCN1CCOCC1)n2C | 4% | 15%
CC(=O)C1=C(c2cccc([N+](=O)[O-])c2)N(C(C)=O)n2c(nnc2-c2ccc(C)cc2)S1 | . | -3%
CNC(=O)c1c2c(nc3ccc(Br)cc13)CCCC2 | 4% | 1%
O=[N+]([O-])c1cccc(S(=O)(=O)c2ccc(NCCOCCO)c([N+](=O)[O-])c2)c1 | -11% | -20%
OCCCNC(=S)Nc1ccc2nccnc2c1 | -3% | 40µM*
COc1ccc(CN(C)C(=O)c2ccc3ccccc3n2)cc1F | -2% | -103%
CC1(C)CC(=O)C(C=NCC2CCN(C(=O)Nc3ccc(Cl)c(Cl)c3)CC2)=C(O)C1 | 5% | 6%
N/C(=N\OCc1ccccc1)c1nonc1N | 1% | 19%
O=C(CN1CCOCC1)N/N=C/c1cccc2ccccc12 | -8% | 9%
O=[N+]([O-])c1ccc2c(c1)nc1n2CCSC1 | 0% | -2%
CNC(=S)N/N=C/c1ccc(N2CCOCC2)s1 | -1% | -1%
O=C(O)CCC(NC(=O)c1cncc(O)c1)C(=O)O (stereo not given) | -5% | 6%
CCOc1ccc(CCNC(=O)CCCc2nnc3n(C)c(=O)c4sccc4n23)cc1OCC | . | -8%
COC(=O)c1ccccc1NC(=O)n1cc(C)cn1 | 4% | -3%
CCOC(=O)C1(C)NC(c2cc(OC)c(OC)c(OC)c2)C2C(=O)N(CC)C(=O)C21 (stereo not given) | -13% | 6%
CNc1nc(C)nc(-n2nc(C)cc2C)n1 | 2% | 2%
O=C(CCN1C(=O)/C(=C\c2ccccc2Cl)SC1=S)Nc1cccnc1 | -12% | -2%
COc1ccc(N2C(=O)CCC(C(=O)O)C2c2ccc(OC)c(OC)c2)cc1 (stereo not given) | 2% | -2%
CCCn1c(SCc2ccc(C(=O)OC)o2)nc2ccccc2c1=O | 2% | 3%

Reprinted at random: 7 entries already listed, in no set order.
SMILES | N370S GC | FEN1 inhibitor
O=C(CN1CCOCC1)N/N=C/c1cccc2ccccc12 | -8% | 9%
COC(=O)c1ccccc1NC(=O)n1cc(C)cn1 | 4% | -3%
O=[N+]([O-])c1cccc(S(=O)(=O)c2ccc(NCCOCCO)c([N+](=O)[O-])c2)c1 | -11% | -20%
O=[N+]([O-])c1ccc2c(c1)nc1n2CCSC1 | 0% | -2%
OCCCNC(=S)Nc1ccc2nccnc2c1 | -3% | 40µM*
CC(=O)C1=C(c2cccc([N+](=O)[O-])c2)N(C(C)=O)n2c(nnc2-c2ccc(C)cc2)S1 | . | -3%
CCCCc1nnc(SCC(=O)NC2CCCCC2)n1C | 0% | 8%

(further entries)
SMILES | N370S GC | FEN1 inhibitor
O=C(NC1CC(=O)c2sccc21)c1ccc(Cl)cc1Cl (stereo not given) | -11% | -2%
O=C(NCCc1ccccc1)C1CCCN(C(=O)NC2CCCCC2)C1 (stereo not given) | -5% | 5%
COc1cc(C(=O)Nc2ccc3c(c2)N(C(=O)CCN(C)C)c2ccccc2CC3)cc(OC)c1OC | -8% | -3%
CCC(C)[C@@H](N)C(=O)N/N=C/c1cccc2nccnc12 (stereo not given in full) | -11% | -1%
CN(Cc1cccnc1)C(=O)c1cc(COc2ccc3ncccc3c2)on1 | 0% | 4%
Cc1ccc(C(=O)Nc2nc(=O)n(C(=O)c3ccccc3C)s2)cc1 | 7% | -4%
CCOc1cc(NC(=O)c2ccccn2)c(OCC)cc1NC(=O)c1cccc(C)c1 | 3% | -13%
Cc1ccc(S(=O)(=O)Nc2nc(C)c(C(=O)Nc3ccccc3)s2)cc1 | 0% | -1%
CCc1cc2c(C)cc(=O)oc2cc1Oc1ncccc1[N+](=O)[O-] | 6% | .
Cc1ccc(C(=O)OCC(=O)N(C)c2ccccc2)cc1C | 5% | -5%
CCOC(=O)N1CCN(S(=O)(=O)c2ccc3c(c2)CC(C)N3C(C)=O)CC1 (stereo not given) | 0% | -1%
O=C(Oc1ccccc1)c1cccc2cccnc12 | 24% | 3%
CCOC(=O)Cn1c(=NC(=O)CSC(C)=O)sc2cc(OC)ccc21 | 7% | 0%
COc1ccc(C(=O)NCCCOC(C)C)cc1OC1CCN(C(C)=O)CC1 | -20% | 8%
Cc1nc(CC(=O)O)c(-c2ccccc2)s1 | 0% | 0%
Cc1ccc(C)n1-c1nccc(-c2ccco2)n1 | ? | -5%
COc1cccc2cc(/C(=N/O)c3ccccc3)oc12 | -2% | -5%
CCOc1ccc(C(C)=O)cc1COC(=O)CNC(=O)c1cccs1 | -2% | 0%
O=C(Nc1ccc2c3c(cccc13)CC2)c1ccc(Br)o1 | 0% | 1%
Cc1c(NC(=O)c2nc3ccccc3nc2N2CCCCC2)cccc1[N+](=O)[O-] | . | -9%
CCCNC(=O)N[C@@H](Cc1ccccc1)C(=O)OC | 10% | -5%
Cc1ccc(/C=C/C(=O)O)cc1S(=O)(=O)NC1CCS(=O)(=O)C1 (stereo not given) | -17% | -15%
c1ccc2[nH]c(Cn3nnc4ccccc43)nc2c1 | 0% | -9%
CCOC(=O)[C@H]1[C@H]2COc3ccc(C)cc3[C@@H]2N2C(=O)c3ccc(F)cc3NC(=O)[C@@]12C | 5% | -14%
COc1ccccc1C(CNC(=O)c1ccc(S(=O)(=O)N2CCCCC2)cc1)N(C)C (stereo not given) | . | -16%

(more compounds)
SMILES | N370S GC | FEN1 inhibitor
COc1ccc(C(=O)N2N=C(c3ccccc3)CC2(O)C(F)(F)F)cc1 (stereo not given) | 25% | 7%
O=C(Nc1c(F)c(F)c(F)c(F)c1F)NC1CCCCC1 | 6% | -4%
O=C(NCCN1CCOCC1)N1CCOCC1 | 6% | 6%
CCCCNC(=O)C1CCC(CNS(=O)(=O)c2ccc(Cl)cc2)CC1 (stereo not given) | . | 0%
CC(=O)C(/C=N/c1cc(-c2ccc(C)cc2)nn1-c1ccccc1)=C(\C)O | 22% | 4%
CN1CCN(CC(=O)Nc2ccc(OCc3ccccc3)cc2)CC1 | -4% | .
O=C(c1ccco1)N1CCN(C(=O)N2CCCC2)CC1 | 12% | -6%
COc1ccc(/C=N/NC(=O)CCc2c(C)n[nH]c2C)cc1OC | 4% | -15%
CCOC(=O)N1CCN(C(=O)c2cc(COc3ccc(Cl)cc3OC)on2)CC1 | 1% | -3%
C=CCn1c(SCC(=O)N2CCOCC2)nc2scc(-c3ccco3)c2c1=O | 8%[2.35 µM] | ?
Cc1ccccc1Nc1ncc(C#N)c(N)n1 | 2% | 18%
Cc1ccc(NC(=O)CNCc2ccccc2)c(Br)c1 | -3% | -7%
O=C(NC1CCCc2ccccc21)c1cccc(Br)c1 (stereo not given) | 11% | -4%
O=C(C1CCCN(S(=O)(=O)c2ccc(F)cc2)C1)N1CCCCCC1 (stereo not given) | -1% | 10%
CCc1ccc(N(C(=O)c2snc(C(N)=O)c2N)C(C(=O)NC2CCCC2)c2ccco2)cc1 (stereo not given) | ? | -22%
CCOc1ccc(N2CC(c3nc4ccccc4n3CCOc3ccccc3)CC2=O)cc1 (stereo not given) | . | -9%
O=C(N/N=C/CCc1ccccc1)c1ccc(CN2c3cccc4cccc(c34)S2(=O)=O)cc1 | 7% | -2%
CCOC(=O)C1=NOC(CN(c2ccccc2)S(=O)(=O)c2ccc(Cl)cc2)C1 (stereo not given) | -10% | 4%
CCN(CC)c1ncccc1C(=O)NCc1cccs1 | 3% | -11%
COc1ccc(CC(=O)OCC(=O)Nc2cc(Cl)ccc2C)cc1 | . | -5%
O=C(O)c1cccc(NC(=O)c2ccc(N3C(=O)c4ccc(C(=O)Nc5cccc(C(=O)O)c5)cc4C3=O)cc2)c1 | -8% | 3%
CCC(OC(=O)c1nsc(Cl)c1Cl)C(=O)NCc1cccs1 (stereo not given) | 12% | -11%
Cc1[nH]c2ccccc2c1C(=O)C(=O)N1CCN(c2ccccc2Cl)CC1 | -10% | -22%
CC/C(C)=C1\SC(N2CCN(C(C)=O)CC2)=NC1=O | 2% | 2%
CN1CCN(C(=O)c2cc3nc(-c4ccc(F)cc4)cc(C(F)(F)F)n3n2)CC1 | -6% | 10%

(more compounds)
SMILES | N370S GC | FEN1 inhibitor
O=C(NCc1nc(-c2ccccc2)no1)c1cccs1 | -4% | 11%
O=C(Nc1ccccn1)c1cccc(S(=O)(=O)N2CCc3ccccc3C2)c1 | -19% | -6%
COc1cc(-c2noc(C)c2C#CC2(O)CCCCC2)cc(OC)c1OC | 4% | -6%&-13%
CCC1(c2ccc(F)cc2)NC(=O)NC1=O (stereo not given) | -2% | 10%
COc1ccc2[nH]c3c(c2c1)CN(C)CC3 | 2% | 14%
Cc1cc(C)n(-c2nc(Nc3ccccc3C)nc(-n3nc(C)cc3C)n2)n1 | -1% | .
C=CCn1c(C)cc(C(=O)CSc2nc3ccccc3[nH]2)c1C | 8% | -14%
CCOCCc1nnc(NC(=O)CS(=O)(=O)Cc2ccccc2)s1 | -5% | 1%
CCC(=O)NC(=S)Nc1ccc2oc(-c3ccc(OC)cc3)nc2c1 | 19% | -7%
CCCc1cc(=O)oc2cc(OCC(=O)Nc3ccc(S(N)(=O)=O)cc3)ccc12 | -4% | ?
Cc1cc([N+](=O)[O-])nn1CC(=O)NCc1ccccc1 | 1% | 2%
COc1cc(Cl)c(NC(=O)CN(C)S(=O)(=O)c2ccc3c(c2)CCCC(=O)N3)c(OC)c1 | . | 13%
Cc1ccc(C(=O)CCC(=O)Nc2ccccc2C)cc1C | 4% | -1%
Cc1ccc(NC(=O)CCSc2ccccn2)cc1 | -10% | -2%
CCCCC(NC(=O)c1cccc(Br)c1)C(=O)O (stereo not given) | 15% | -1%
Cc1ccc(S(=O)(=O)NNC(=O)c2snnc2C)cc1 | -13% | 7%

Records listed so far that bear a hit mark in FEN1 inhibitor:
SMILES | N370S GC | FEN1 inhibitor
OCCCNC(=S)Nc1ccc2nccnc2c1 | -3% | 40µM*

These rows are one share of the data; most or all hits stand in other tables.
